VDR inhibitor = inhibitors of human vitamin D receptor | VDR-SRC2-3 peptide fluorescence polarization, 2 h | actives 0.93% (n = 400,000) | Potency, µM, without a hit: max response, negative = inhibition, most hits filed as inhibitors | P11473; active = well fitted inhibition curve with a large enough effect; inconclusive = small, poorly fitted or top-dose-only effect, or another doubt; inactive = no such curve, though single readings can be large or run the other way; note: series mostly up to about 120 µM
Target sequence (P11473 whole entry, looked up): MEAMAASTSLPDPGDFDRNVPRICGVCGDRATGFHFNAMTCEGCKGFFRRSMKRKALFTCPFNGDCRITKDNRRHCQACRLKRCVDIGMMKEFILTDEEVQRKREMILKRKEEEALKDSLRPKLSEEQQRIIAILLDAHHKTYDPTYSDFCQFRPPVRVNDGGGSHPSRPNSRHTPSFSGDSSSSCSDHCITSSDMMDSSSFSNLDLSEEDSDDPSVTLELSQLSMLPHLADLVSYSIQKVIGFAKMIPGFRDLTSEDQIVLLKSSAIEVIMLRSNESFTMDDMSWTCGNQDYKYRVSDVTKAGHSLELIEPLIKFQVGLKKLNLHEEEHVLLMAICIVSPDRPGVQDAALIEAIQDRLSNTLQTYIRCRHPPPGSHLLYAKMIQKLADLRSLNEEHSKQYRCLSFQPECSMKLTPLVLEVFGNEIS
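Two reagent solutions held at 4 deg C in the dark were dispensed, compounds pinned at 23 nl, and the mixture incubated 2 h at room temperature. Read-out: fluorescence polarization of VDR–SRC2-3 peptide binding.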
* = called active by the depositor; u = inconclusive; & = joins results of further samples; [ ] = remark or other dose. % is set by controls: 0 for no effect and ±100 for the full control effect; potency is the fitted concentration of half-maximal effect. These rows are one share of the data; count on the stated rates, not on these rows.

SMILES | VDR inhibitor
O=C(O)C1=C[C@H](c2csc3ccccc23)C[C@H](OCc2ccc(CO)cc2)O1 | -14%
CC1(C)CC(NC(=O)c2ccccc2F)CC(C)(C)N1 | 1%
Cc1cccc(N2CCN(c3ccc4cc(S(=O)(=O)N5CCCCC5)ccc4n3)CC2C)c1 (stereo unspecified) | -19%
CCN(CC)C(=O)CSC(Nc1cccc(F)c1)=C(C#N)C#N | 78%[activator]
CCOC(=O)NCN1C(=O)C2C3C=CC(C3)C2C1=O (stereo unspecified) | 5%
CC(C)(O)C(=O)NNC(=S)NCc1ccco1 | 2%
O=C(Cn1nc(-c2ccco2)ccc1=O)Nc1cc(C(F)(F)F)ccc1Cl | -14%
CCCCn1c(N)c(N(C)C(=O)c2cn(-c3ccccc3)nc2-c2ccccc2)c(=O)[nH]c1=O | 13%
Cc1ccccc1N(C(=O)CCC(=O)Nc1ccccn1)C(C(=O)NC(C)C)c1ccc(F)cc1 (stereo unspecified) | -11%
CC(=O)N(c1nc(/C=C\C(=O)O)cs1)c1ccccc1F | 4%
CC(C)(C)c1ccc(OCCNCc2ccccc2)cc1 | -4%
O=C(CCN=C1NS(=O)(=O)c2ccccc21)OCC(=O)c1ccc(F)cc1 | 6%
CCN1c2ccccc2-c2nc3ccccc3n2C1c1cccnc1 (stereo unspecified) | 9%
CC(=O)c1c(C)[nH]c(C(=O)CSc2nnc(N)s2)c1C | 6%
CCc1ccc(CCC(=O)Nc2ccc(C)cc2C)o1 | 11%
CC1CCCCC12NC(=O)N(CC(=O)c1ccc(Cl)s1)C2=O (stereo unspecified) | 7%
O=C(O)[C@H](Cc1ccccc1)NC(=O)N1CCN(c2cccc(C(F)(F)F)c2)CC1 | -5%
CCN(CC)c1ccc(C=O)c(OC)c1 | 0%
CCc1cccc(NC(=O)c2cnc(N3CCOCC3)c3ccccc23)c1 | -2%
COc1ccccc1N1C(=O)CC1(C#N)c1ccc(OCc2ccccc2)cc1 (stereo unspecified) | 20%
COc1ccc(N(CC(=O)N2CCN(c3cccc(C)c3)C(C)C2)S(=O)(=O)c2c(C)n[nH]c2C)cc1 (stereo unspecified) | -4%
CCCCNC(=O)c1ccc(N2CCOCC2)c(NS(=O)(=O)c2ccc(OC)cc2)c1 | -5%
O=C(CCSCc1ccccc1F)NCc1cccnc1 | u
O=C(CCC(=O)n1ncc2ccccc21)NCc1ccc(F)cc1 | 4%
COC(=O)CN1C(=O)[C@H]2[C@@H](/C=C/c3ccccc3)N3C(=O)CN(Cc4ccc(-c5ccccc5)cc4)C(=O)[C@@]3(C)[C@H]2C1=O | -2%
Next records follow:
SMILES | VDR inhibitor
CC1CC(C)CN(C(=O)CN(C)S(=O)(=O)c2ccc3c(c2)c(=O)n(C)c(=O)n3C)C1 (stereo unspecified) | 0%
COC(=O)Nc1ccc(S(=O)(=O)NCc2ccccn2)cc1 | 10%
CCOC(=O)C1(CC2CCCCO2)CCN(Cc2nc3ccccc3nc2C)CC1 (stereo unspecified) | 16%
S=C1CCC(c2ccc(Cl)cc2)=NN1c1ccccc1 | 6%
COc1ccccc1-n1c(SCC(=O)Nc2ccc(F)cc2)nc2c(c1=O)SCC2 | -2%
CCCOc1ccc(CCC(=O)N/N=C/c2ccco2)cc1 | -20%
CCCCN1C2CCCC1CC(NC(=O)c1ccccc1Cl)C2 (stereo unspecified) | -2%
C[C@H](NC(=O)c1nc[nH]c1C(=O)NC(c1ccccc1)c1ccccc1)C(=O)OCc1ccccc1 | -24%
Cc1cccc(Cc2c(C)nc3nc(SCC(=O)NCc4ccc(F)cc4)nn3c2C)c1 | -6%
CC1CCN(S(=O)(=O)c2ccc(NC(=O)N3c4ccccc4Sc4ccccc43)cc2)CC1 | 9%
CCc1ccc(C(=O)C(C)OC(=O)Cn2cnc3c2c(=O)n(C)c(=O)n3C)cc1 (stereo unspecified) | 3%
Cc1ccc(-c2nc3ccccc3c(=O)n2NC(=O)c2cccs2)cc1 | 10%
Cc1oc(C(C)(C)C)c(CN2CCOCC2)c1C(=O)O | 3%
CN(C)CCCCOc1ccc(Br)cc1Cl | 15%
Cc1cc(C)nc(N/N=C/c2ccccc2OCc2ccc(Cl)cc2)n1 | 26%
COC(=O)Cn1cnc2c(nnn2-c2ccc(F)cc2)c1=O | 8%
Cc1nnc(SCc2cnc(-c3ccccc3)o2)[nH]c1=O | -1%
CCOC1=C/C(=C/c2c(N)n3nc(S(=O)(=O)CC)sc3nc2=O)C=CC1=O | 11%
O=C(CCS(=O)(=O)c1ccc2c(c1)NC(=O)CO2)NCCc1ccc(Cl)cc1 | 6%
Cc1nn(-c2ccccc2)c(N2CCCC2)c1/C=C1\N=C(c2ccc(F)cc2)OC1=O | u
COc1ccc(Cl)cc1NC(=O)c1c(NCc2cccs2)sc2c1CCC(C)C2 (stereo unspecified) | -8%
CC1(C)Cc2c(c(N3CCOCC3)nc3sc(C(=O)Nc4ccc(Cl)cc4)c(N)c23)CO1 | 1%&-19%
Cc1ccc(CNC(=O)COC(=O)CCC(=O)c2cccs2)cc1 | 1%
Cc1cc(S(=O)(=O)Nc2ccc(C(=O)NCCCn3ccnc3)cc2)ccc1F | -12%
CCN(CC)C(=O)c1cccc2c1C(=O)c1ccccc1-2 | -5%

As a short view, some entries already given.
SMILES | VDR inhibitor
COc1ccc(Cl)cc1NC(=O)c1c(NCc2cccs2)sc2c1CCC(C)C2 (stereo unspecified) | -8%
CC1(C)Cc2c(c(N3CCOCC3)nc3sc(C(=O)Nc4ccc(Cl)cc4)c(N)c23)CO1 | 1%&-19%
Cc1ccc(CNC(=O)COC(=O)CCC(=O)c2cccs2)cc1 | 1%
Cc1cc(S(=O)(=O)Nc2ccc(C(=O)NCCCn3ccnc3)cc2)ccc1F | -12%
CCN(CC)C(=O)c1cccc2c1C(=O)c1ccccc1-2 | -5%

Next part.
SMILES | VDR inhibitor
O=C1c2ccccc2N(Cc2ccc(Cl)cc2)C2=NCCN12 | 9%
Cc1nc(N2CCCC2)c2c(C(=O)Nc3cccc(C)c3C)c(C)oc2n1 | -8%
CCOC(=O)c1ccccc1NC(=O)c1sc2nc(-c3ccc(F)cc3)cn2c1C | 4%
COc1ccc(C(=O)NCC(c2ccco2)N2CCCCC2)cc1S(=O)(=O)Nc1ccc(C)cc1 (stereo unspecified) | 9%
O=C(Nc1nccs1)c1c(O)c2c([nH]c1=O)CCCC2 | 4%
COc1ccc(CNc2c(CO)cnc3c2cnn3C)cc1 | -12%
Cc1ccc(-c2cnc(SCC(=O)N3CCCc4ccccc43)n2C)cc1 | -1%
CC(C)(C)S(=O)(=O)c1nc2ccccc2s1 | 18%
CC(C)C(=O)Nc1cccc(NC2=NS(=O)(=O)c3ccccc32)c1 | 4%
N#CCSC1=Nc2ccccc2C2=NC(CCC(=O)N3CCN(c4ccccc4)CC3)C(=O)N12 (stereo unspecified) | -4%
CC(C)Oc1ccc(/C=C(/NC(=O)c2ccccc2)C(=O)NCCC(=O)O)cc1 | -3%
O=C(Nc1nc(-c2ccc(S(=O)(=O)N3CCCC3)cc2)cs1)c1ccco1 | 2%
Nc1cc(=O)nc(SCC(=O)Nc2cccc(Cl)c2)n1CCc1ccccc1 | 5%
COCc1nc2ccccc2n1Cc1ccc(C(C)(C)C)cc1 | 6%
O=C(Nc1nnc(C2CC2)s1)c1ccc(Cl)nc1 | 8%
COCC(=O)N(c1ccc(C(C)C)cc1)C1C=CS(=O)(=O)C1 (stereo unspecified) | 10%
Cc1ccc(C(=O)Nc2ccc(S(=O)(=O)N3CCOCC3)cc2)cc1 | -1%
CCOC(=O)C1C(=O)CC(C)(O)C(C(=O)OCC)C1c1cc(Br)ccc1OC (stereo unspecified) | -9%
CCc1cccc(N(C(=O)c2csnn2)C(C(=O)NC(C)(C)C)c2ccncc2)c1 (stereo unspecified) | 9%
CCOC(=O)CN1C(=O)N[C@@H](c2ccco2)C(C(=O)OC)=C1C | 4%
CC1=C(C(=O)OC2CCCC2)C(c2coc3ccccc3c2=O)C2=C(CCCC2=O)N1 (stereo unspecified) | -18%
Cc1ccccc1C(=O)NC(=S)Nc1ccc(Oc2ccc(Cl)cc2)cc1 | 0%
N#CCc1c(C#N)c(N)nc(N2CCN(C=O)CC2)c1C#N | u
C=CCNC(=O)c1ccc2c3n(nc2c1)-c1ccc(C)cc1CO3 | -18%
O=C(O)CCn1c(=O)sc2ccccc21 | -3%

5 records picked at random from those above:
SMILES | VDR inhibitor
CC(C)(C)S(=O)(=O)c1nc2ccccc2s1 | 18%
COc1ccc(CNc2c(CO)cnc3c2cnn3C)cc1 | -12%
COCc1nc2ccccc2n1Cc1ccc(C(C)(C)C)cc1 | 6%
O=C(Nc1nnc(C2CC2)s1)c1ccc(Cl)nc1 | 8%
O=C(Nc1nccs1)c1c(O)c2c([nH]c1=O)CCCC2 | 4%

(listing goes on)
SMILES | VDR inhibitor
CCOC(=O)[C@H]1CCC[C@@H](NS(=O)(=O)c2ccc(NC(C)=O)cc2)C1 | 8%
Nc1ccccc1SCC(=O)N1CCc2ccccc21 | -12%
O=C(CSc1nc2ccccc2c(=O)n1NC(=O)Cc1ccccc1)NCc1ccccc1 | -8%
O=C(Nc1ccc(F)cc1)c1cccnn1 | -3%
CC(C)Nc1nc2ccccc2c(=O)[nH]1 | u
C[C@@H](NCCCn1cnc2c(OCc3ccccc3)ncnc21)c1cccc2ccccc12 | 0%
Cc1cc(C)c(S(=O)(=O)Nc2ccc(O)cc2)cc1C | -23%
O=S(=O)(c1cc(Cl)ccc1Cl)N1CCc2ccccc21 | -1%
CCOC(=O)c1c(C)[nH]c(C)c1S(=O)(=O)N1CCC(C(=O)N2CCN(c3ccc(F)cc3)CC2)CC1 | -3%
Cc1cc(NC(=O)COC(=O)c2ccc(NS(=O)(=O)c3ccc(C)c(C)c3)cc2)no1 | -6%
COc1ccc(S(=O)(=O)n2nc(OC(=O)c3ccc(C)cc3)cc2N)cc1 | 15%
Cc1ccc(CCC(=O)Nc2nccs2)o1 | 0%
CCOC(=O)CSc1nc2cc(C(=O)N3CCC(C(N)=O)CC3)ccc2c(=O)n1-c1ccccc1 | -3%
Cc1oc(-c2ccccc2F)nc1CSCC(=O)N1CCN(c2ccccc2)CC1 | -19%
COc1ccc(C(=O)NCCc2nnc(SCc3nc4ccccc4c(=O)[nH]3)n2C)cc1 | 10%
CC1(C)NC(=O)N(CC(O)COc2ccccc2C(=O)Nc2ccccc2)C1=O (stereo unspecified) | -2%
COc1ccc(NC(=O)CN2CCC(C)CC2)cc1 | -7%
O=C1c2ccccc2C(=O)N1CCCCN(C(=O)c1cccc([N+](=O)[O-])c1)c1ccc(Cl)cc1 | -20%
Cc1cc(C(=O)CSc2nnc(N)s2)c(C)n1CCc1ccc(Cl)cc1 | -3%
Cc1ccc(NC(=O)c2ncn(CCCNCCCc3ccccc3)n2)cc1C | -5%
COC(=O)c1sccc1NC(=O)/C=C/c1ccc(Cl)cc1 | -5%
O=C(O)c1nccnc1C(=O)Nc1ccc(S(=O)(=O)N2CCOCC2)cc1 | 29%
CCOc1ccc(NC(=O)c2cccc3ccccc23)cc1 | -6%
Cc1nc2ccc(Br)cn2c1NC(C)(C)C | -25%
N#Cc1ccsc1NC(=O)CN1CCCCCC1 | -5%

Brought forward from above: seven entries, followed by the next part.
SMILES | VDR inhibitor
Cc1cc(C(=O)CSc2nnc(N)s2)c(C)n1CCc1ccc(Cl)cc1 | -3%
Cc1ccc(NC(=O)c2ncn(CCCNCCCc3ccccc3)n2)cc1C | -5%
COC(=O)c1sccc1NC(=O)/C=C/c1ccc(Cl)cc1 | -5%
O=C(O)c1nccnc1C(=O)Nc1ccc(S(=O)(=O)N2CCOCC2)cc1 | 29%
CCOc1ccc(NC(=O)c2cccc3ccccc23)cc1 | -6%
Cc1nc2ccc(Br)cn2c1NC(C)(C)C | -25%
N#Cc1ccsc1NC(=O)CN1CCCCCC1 | -5%
Cc1c(C(=O)NCCN(C)C)oc2ccc(S(=O)(=O)N3CCCC3)cc12 | -15%
COc1ccc(C)cc1NC(=O)Cn1cc(S(=O)(=O)N2CCC(C)CC2)c2ccccc2c1=O | -2%
Cc1cc(=O)n2nc(N3CCC(C(=O)Nc4c(C)cccc4C)CC3)sc2n1 | 10%
COc1ccccc1-c1nnc(-c2ccc(N3CCOCC3)cc2)o1 | 9%
CCc1ccc(Nc2n[n+](-c3ccccc3)c(-c3c(Cl)cccc3Cl)s2)cc1 | u
Cc1ccc(Sc2ccc(NC(=O)CCl)cc2)c(C)c1 | 12%
NCC(=O)N[C@@H](CCCN=C(N)N)C(=O)NCC(=O)N[C@@H](CC(=O)O)C(=O)N[C@@H](CC(N)=O)C(=O)N1CC[C@@H](C(=O)O)C1 | -2%
O=C(Nc1nc(-c2cc(Cl)sc2Cl)cs1)c1ccccc1 | 3%
O=C(NC1CC1)C1=C[C@@H](c2ccc3c(c2)OCO3)C[C@@H](OCc2ccc(CO)cc2)O1 | 1%
COc1cc2c(cc1OC)C(C)N(S(=O)(=O)c1cnc(Cl)c(Cl)c1)CC2 (stereo unspecified) | 8%
COc1cccc(C(=O)NCC(c2cccs2)N2CCc3ccccc32)c1 (stereo unspecified) | 13%
CC(C)(C)NC(=O)NC(=O)CN1CCN(C(c2ccccc2)c2ccccc2)CC1 | 25%
NNC(=S)Nc1ccccc1Cl | -2%
NC(=S)Nn1c(CCC(=O)O)ccc1-c1ccccc1 | -4%
Cc1cc(C(=O)NCc2csc(-c3ccccc3)n2)no1 | 10%
CC1(C)C2([N+](=O)[O-])CN(CCO)CC1([N+](=O)[O-])CN(CCO)C2 | 6%
CCOC(=O)c1cc(C)sc1NC(=O)CSc1nnnn1C | -12%
Cc1cccc(NC(=S)NNC(=O)c2ccco2)c1 | 1%
CC(=O)N(C)C1(c2nnnn2CCOC(=O)Nc2cccc3ccccc23)CCCC1 | 2%
COC(=O)c1cc(C(=O)OCC(=O)N2CCCCC2)cc([N+](=O)[O-])c1 | -9%
O=C(NC(=S)Nc1cccc(Cl)c1N1CCCCC1)c1cccs1 | 1%

Assay outcomes from PubChem.
